Bioassay records from PubChem BioAssay.
AID923 = qHTS Assay for Allosteric/Competitive Inhibitors of Caspase-1: Spectroscopic Profiling in AFC Spectral Region; compound fluorescence, AFC spectral region (405/520 nm); almost no hit is shown here; Potency, µM (series often up to 57.5 µM), inactives show top-dose fluorescence increase, most hits filed as activators; actives 1.1% (n = 75,000); AID 923, 2007; active = well fitted activation curve with a large enough effect; inconclusive = small, poorly fitted or top-dose-only effect;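 also: potency is read from the fitted curve at half-maximal effect; 0% is about no effect; scaled to a free AFC standard on each plate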
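Baseline compound fluorescence (AFC region, 405 nm ex/520 nm em) taken from the intercept of kinetic reads with 50 nM caspase-1 and 5 uM Ac-WEHD-AFC; normalized to an on-plate AFC standard curve; compounds titrated up to 57 uM.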
A488 autofl = compound fluoresces in the A488 spectral region | compound autofluorescence, A488 spectral region, dye equivalency; active compounds read high | max dye equivalency, M | actives 0.1% (n = 59,000) | AID 591; active = above 10 nM dye equivalent; inconclusive = 1 to 10 nM; inactive = 1 nM or less; about half of its hits are not listed in these tables;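 also: highest value over a series up to 38 µM; compound alone in buffer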
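Read-out: relative fluorescence at 480/540 nm, expressed as Alexa 488 dye-equivalent concentration from a six-point A488 standard included per plate. Conditions: 100 mM Tris, pH 8.0; 15 min incubation, room temperature.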
TSHR agonist = activates the human thyroid stimulating hormone receptor | P16473 | actives 0.48% (n = 73,000) | AID 926 | Potency, µM (doses to about 57.1 µM), without a hit: top-dose activation, usual class: activators | HEK293-CNG-TSHR cells (CNG channel as cAMP sensor), membrane potential dye, cAMP; active = well fitted activation curve of enough size with the parental cells flat; inconclusive = any curve in the parental cells; inactive = parental cells flat and receptor cells flat or falling; also: potency is read from the fitted curve at half-maximal effect; % of control where 0% means no effect; weak receptor curves with flat parental cells got no call and are not listed
Target sequence (P16473 whole entry, looked up): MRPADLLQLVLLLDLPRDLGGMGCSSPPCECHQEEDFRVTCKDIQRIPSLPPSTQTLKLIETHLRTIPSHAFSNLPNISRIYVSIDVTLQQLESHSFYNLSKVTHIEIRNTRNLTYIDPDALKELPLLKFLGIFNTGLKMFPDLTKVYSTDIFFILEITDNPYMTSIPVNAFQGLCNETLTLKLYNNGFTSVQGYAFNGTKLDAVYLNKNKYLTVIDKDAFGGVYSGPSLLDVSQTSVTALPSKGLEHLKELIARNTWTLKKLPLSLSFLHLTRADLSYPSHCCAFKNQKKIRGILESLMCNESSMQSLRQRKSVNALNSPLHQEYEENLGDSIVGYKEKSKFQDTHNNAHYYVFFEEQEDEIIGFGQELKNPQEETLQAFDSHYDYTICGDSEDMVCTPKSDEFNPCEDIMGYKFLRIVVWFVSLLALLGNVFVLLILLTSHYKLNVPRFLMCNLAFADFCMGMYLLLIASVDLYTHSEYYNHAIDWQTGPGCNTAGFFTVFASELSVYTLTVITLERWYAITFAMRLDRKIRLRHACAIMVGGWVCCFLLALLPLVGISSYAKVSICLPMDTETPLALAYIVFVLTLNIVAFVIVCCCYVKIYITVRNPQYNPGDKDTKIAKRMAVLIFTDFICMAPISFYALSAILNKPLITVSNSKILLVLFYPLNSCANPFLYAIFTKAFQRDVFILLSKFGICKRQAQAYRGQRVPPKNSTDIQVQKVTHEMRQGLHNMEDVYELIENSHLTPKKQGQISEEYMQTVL
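cAMP rise detected as CNG-channel membrane depolarization by fluorescent dye (emission 590 nm), 30 min after compound, following 60 min dye loading containing 100 uM RO 20-1724 at room temperature. Cells: TSHR/CNG HEK 293, with parental CNG HEK 293 as control.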
A647 autofl = A647 region autofluorescence; Compound fluorescence, A647 channel (570/671 nm), Tris buffer; 59,000 tested, under 10 active; max dye-equivalent concentration, M; active means above 1 µM dye equivalent; inconclusive means 0.1 to 1 µM; inactive means 0.1 µM or less;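 also: values scaled relative to a standard on each plate; highest value over a series up to 38 µM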
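Buffer was dispensed, compounds and Alexa 647 standards were pin-transferred, and plates sat 15 min at room temperature. Intensity at 570/671 nm was then converted to dye-equivalent concentration using the plate's A647 standard curve.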
Resorufin autofl = compounds fluorescent in resorufin spectral region | Compound fluorescence, resorufin region 547/598 nm, buffer; active compounds read high | max dye-equivalent concentration, M | actives 0.04% (n = 59,000) | AID 588; active = above 10 nM dye equivalent; inconclusive = 1 to 10 nM; inactive = 1 nM or less; a few of its hits are not listed in these tables; also: highest value over a series up to 38 µM
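Tris 100 mM pH 8.0; compound added, 15 min RT; CCD imager read, ex 547 nm/em 598 nm; signal normalized to resorufin standard curve (six concentrations per plate) as dye-equivalent concentration.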
Numbers without * were called inactive; i = inactive; ? = inconclusive; / = no result given; & = joins results of further samples; [ ] = dose if it differs, or a comment. Not all compounds are listed, so the mix of outcomes need not match the whole.

No.	SMILES	TSHR agonist	A488 autofl	Resorufin autofl	AID923	A647 autofl
1	COc1ccccc1CCNS(=O)(=O)c1c(C)n(C)c(=O)n(C)c1=O	-5%[11.4 µM]	/	/	1.2%	/
2	CC(=O)Nc1nonc1NC(=O)CSc1nc2ccccc2o1	-2%	i	i	1.0%	2.5e-08
3	CSc1nc2ccccc2n1CC(=O)N1CCCCC1	-4%	i	i	1.4%	1e-09
4	Cc1sc2nc(SCC(=O)OC(C)C)n(C)c(=O)c2c1C	?	i	i	1.0%	1e-09
5	O=C(OCCN1C(=O)c2ccccc2C1=O)c1cnccn1	17%	i	i	1.5%	1e-09
6	CCOC(=O)N1CCN(C(=O)c2ccc(CN(c3ccc(C)c(C)c3)S(C)(=O)=O)cc2)CC1	20%	/	/	2.6%	/
7	Cc1cccc(NC(=O)CSc2nnc([C@@H]3CCCN3C(=O)OC(C)(C)C)o2)c1C	6%	i	i	-0.2%	1e-09
8	C=Cn1c(C(=O)O)cc(CC)c1-c1ccccc1	10%	i	i	-1.1%	1.3e-08
9	Nc1c(S(N)(=O)=O)cc(S(N)(=O)=O)cc1S(N)(=O)=O	4%[11.4 µM]	i	i	0.8%[11.5 µM]	5.1e-08
10	N#Cc1c(N)sc(=S)c2c1CCCCC2	/	i	i	/	1e-09
11	O=C1CC(c2ccccc2)CC(O)=C1C=NCCN1CCN(C(=O)Nc2ccccc2)CC1 (centres undefined)	-2%	i	i	0.2%	4.8e-09
12	CN(C)C(=O)Cn1cnc2c(cnn2-c2ccccc2Cl)c1=O	-1%	i	i	-0.5%	1e-09
13	Cc1noc(C)c1C(=O)N1CCN(CCc2ccccc2)CC1	1%	i	i	-1.4%	3.4e-08
14	CCOc1ccc2c(ccc(/C=C\c3cc(C)c4cccnc4c3O)[n+]2C)c1	0%[11.4 µM]	i	i	4.3%[11.5 µM]	2.5e-08
15	COC(=O)[C@@]1(Cc2ccccc2)[C@H]2c3cc(C(=O)N4CCCC4)n(Cc4nc5ccccc5[nH]4)c3C[C@H]2CN1C(=O)c1ccccc1	?	/	/	13%	/
16	COC(=O)c1cccc(NC(=O)c2cccc(OC)c2)c1	1%	i	i	-0.4%	2.2e-08
17	Cc1nn(Cc2c(Cl)cccc2Cl)c(C)c1NC(=O)c1cc(C(C)C)on1	4%	/	/	-2.5%	/
18	O=C(Nc1ccccc1F)NC1CCN(Cc2nnnn2Cc2ccc(F)cc2)CC1	-3%	i	i	-1.1%	2.2e-09
19	COc1ccc(OC)c(S(=O)(=O)N(C)CC(=O)Nc2ccc3c(c2)OCCO3)c1	3%	i	i	-1.3%	2.8e-09
20	O=C(NCCc1ccccc1)C1CCN(C(=O)c2sccc2-n2cccc2)CC1	25%	/	/	-1.7%	/
21	O=C1C[C@@H](c2ccc(O)cc2)Oc2cc(O)cc(O)c21	-5%	i	i	1.2%[25.7 µM]	1.3e-08&1.8e-08
22	O=C(CSc1nc2c(cnn2-c2ccc(F)cc2)c(=O)[nH]1)N1CCOCC1	-3%	i	i	1.7%	1.6e-08
23	Cn1nc(CC(=O)Nc2ccc(N3CCN(C(=O)OC(C)(C)C)CC3)cc2)c2ccccc2c1=O	11%	i	i	-0.5%	5.3e-09
24	O=C(NC1CCCCC1)c1nc2c(nnn2Cc2ccccc2Cl)c(=O)[nH]1	?	i	i	-1.7%	4.2e-09
25	COc1ccccc1-c1coc2c(CN3CCN(CCO)CC3)c(O)ccc2c1=O	2%	i	i	5.8%	1e-09
26	S=c1nc(-c2nc(=S)[nH]c3c2CCCCCCCCCC3)c2c([nH]1)CCCCCCCCCC2	?	i	i	-0.2%[11.5 µM]	8e-09
27	Cn1c(=O)n(C)c2cc(C(=O)O)ccc21	3%	i	i	2.2%	1e-09
28	Cn1c2c(c(=O)n(C)c1=O)C(c1ccc(Br)cc1)Nc1ccccc1O2 (centres undefined)	16%	i	i	-0.9%	1.5e-08
29	COc1cc(NC(=O)c2cc(OC)c(OC)c(OC)c2)c(OC)cc1NC(=O)CN1CCCCC1	-5%	i	i	5.4%	1.6e-08
30	O=C(CSc1nnc2scc(-c3ccccc3)n12)Nc1nsc(-c2ccc(Cl)cc2)n1	16%	i	i	-0.5%	1e-09
31	COc1cccc(N(C(=O)CNC(=O)c2ccco2)C(C(=O)NC2CCCCC2)c2ccncc2)c1 (centres undefined)	6%	i	i	0.2%	3.6e-08
32	Cc1coc(C)c1C(=O)CC1(O)C(=O)Nc2cc(Cl)cc(Cl)c21 (centres undefined)	29%	i	i	3.8%	3.2e-08
33	COc1ccc(CC(=O)c2ccccc2C(=O)O)cc1	3%	i	i	0.9%	3e-08
34	Cn1cc(Cl)c(C(=O)N2CCN(c3ncccn3)CC2)n1	-2%	i	i	-0.6%	1.9e-08
35	CC1CCC(C(C)C)C(OC(=O)COC(=O)c2cccn2C)C1 (centres undefined)	?	i	i	-1.0%	2.6e-08
36	Cc1nc(C2CC(=O)OC23CCCCC3)cs1 (centres undefined)	1%	/	/	1.4%	/
37	CCOC(=O)N1CCN(C(=O)COc2ccc(S(=O)(=O)NC(C)C)cc2)CC1	-1%	/	/	1.6%	/
38	CCOC(=O)CC(=O)CSc1nc(N)c(C#N)c(-c2ccc(Cl)cc2)c1C#N	/	i	i	/	4.4e-08
39	COc1ccccc1CN1CCCC2(CCN(C(=O)c3cccc(F)c3)CC2)C1	?	i	i	0.2%	9.3e-09
40	CC(C)(C)NC[C@@H](O)c1ccc(O)c(CO)n1	17%[11.4 µM]	i	i	0.5%[11.5 µM]	1e-09
41	COc1ccc(CCNC(=O)C2CC(=O)N(C3CCCC3)C2)cc1OC (centres undefined)	-3%	i	i	-1.7%	6.8e-09
42	CC(=O)Nc1ccc(-n2c(C)nc(=O)c(-c3ccccc3)c2C)cc1	2%	i	i	0.3%	1e-09
43	C=CCN1C(c2ccccc2)=CS/C1=C(\C#N)c1nnc2n1CCCCC2	4%	i	i	-1.5%	1e-09
44	COc1cccc(-c2cc(=O)c3ccccc3o2)c1N	?	i	i	-2.6%	3.9e-08
45	CC(C)C(NC(=O)OCc1ccccc1)C(=O)OCC(=O)N1C(C)CCCC1C (centres undefined)	0%	i	i	-2.4%	1e-09
46	Cn1c(=O)cc(SCC(=O)N2CCCC2)c2cc(Cl)ccc21	5%[11.4 µM]	i	i	-1.1%	1e-09
47	Cc1ccccc1NC(=O)c1cc(N)ccc1N1CCCCC1	5%	i	i	0.4%	1e-09
48	CCCCC(CC)C(=O)NCc1ccccc1OC (centres undefined)	?	i	i	-1.1%	1e-09
49	Cc1ccc(C2(C)NC(=O)N(Cc3c(C)noc3C)C2=O)cc1 (centres undefined)	6%	i	i	-2.8%	3.7e-08
50	O=C1N=C(N2CCOCC2)SC1=C1CCCCC1	-11%	/	/	1.2%	/
51	CCOC(=O)c1oc2ccc(Br)cc2c1NC(=O)CN1CCN(C)CC1	13%	i	i	-1.3%	2.2e-08
52	O=C(CCn1c(=O)sc2ccccc21)NCc1ccc2c(c1)OCO2	0%	i	i	0.8%	3e-08
53	Cn1c(=O)c(-c2ccc(F)cc2)nc2cncnc21	-2%	i	i	10%	2.5e-08
54	Cc1ccc(OCC(=O)N2CCN(C(=O)Cc3ccccc3)CC2)cc1	0%	/	/	-2.7%	/
55	C=CC[C@@H]1C=C[C@H](O/N=C\[C@@H](C)[C@H](OCc2ccccc2)C(C)C)[C@H](CO)O1	9%[11.4 µM]	/	/	-1.0%[11.5 µM]	/
56	CC1=CCC2C(=O)N(c3cccc(C(=O)N(C)C4CCCCC4)c3)C(=O)C2C1 (centres undefined)	1%[11.4 µM]	/	/	-0.8%	/
57	O=C(NCCCN1CCOCC1)c1ccc(CS(=O)(=O)Cc2ccc(Cl)cc2)o1	-1%	i	i	-2.7%	5.7e-09
58	C/C(=C\c1cc(C(=O)O)c(C)o1)CO	7%	i	i	3.2%	4.1e-09
59	CC(C)CC(OC(=O)c1cccs1)C(=O)NCC1CCCO1 (centres undefined)	-2%	i	i	1.4%	1.2e-08
60	COc1ccc(NC(=O)C2CCCN2S(=O)(=O)c2ccc3c(c2)CCC(=O)N3)cc1Cl (centres undefined)	6%	/	/	2.8%	/

Entries of single compounds, looked up by structure. Values in the order: TSHR agonist | A488 autofl | Resorufin autofl | AID923 | A647 autofl
`Cc1coc(C)c1C(=O)CC1(O)C(=O)Nc2cc(Cl)cc(Cl)c21` (centres undefined) in the list: 29% | i | i | 3.8% | 3.2e-08
`CCOC(=O)N1CCN(C(=O)COc2ccc(S(=O)(=O)NC(C)C)cc2)CC1` in the list: -1% | / | / | 1.6% | /
`CC1=CCC2C(=O)N(c3cccc(C(=O)N(C)C4CCCCC4)c3)C(=O)C2C1` (centres undefined) in the list: 1%[11.4 µM] | / | / | -0.8% | /

Next part
No.	SMILES	TSHR agonist	A488 autofl	Resorufin autofl	AID923	A647 autofl
61	CC(C)OC(=O)CSc1nnc(Cc2ccccc2)n1Cc1ccco1	?	i	i	-0.4%	4.7e-08
62	Cc1nc(COC(=O)c2ccc(S(=O)(=O)N3CCCC3)cc2)cs1	2%	i	i	1.7%	1e-09
63	Cc1ccc(S(=O)(=O)NC(CC(=O)N2CCOCC2)c2ccco2)cc1 (centres undefined)	-4%	i	i	0.0%	4.1e-08
64	CCOC(=O)c1ccc(NC(=O)N(CC)CC)cc1	7%	/	/	0.2%	/
65	Clc1ccc(-n2ncc3c(NCc4ccc5c(c4)OCO5)ncnc32)cc1	/	i	i	-2.5%	1e-09
66	CCOC(=O)c1c(C)n(C)c2ccc(OC)c(NC(=O)CN3CCN(C(=O)c4ccco4)CC3)c12	10%	i	i	-0.5%	2.3e-08
67	CCOC(=O)CN1Cc2cccc(C(=O)O)c2C1=O	0%	/	/	-0.8%	/
68	CCOc1ccc(N(Cc2cc3cc(OC)ccc3[nH]c2=O)S(C)(=O)=O)cc1	20%	i	i	0.6%	8.2e-09
69	O=C(NCCNC(=O)c1ccco1)c1cccc(F)c1	1%	i	i	-3.1%	1.6e-08
70	O=C(O)c1cccc(C[C@H](Br)C(=O)O)c1	-2%[11.4 µM]	i	i	0.3%[11.5 µM]	1e-09
71	O=C1OC(N2CCN(C(=O)c3ccco3)CC2)c2ccccc21 (centres undefined)	-6%	i	i	-1.7%	1e-09
72	CC1Cn2c(CCc3ccccc3)nnc2S1 (centres undefined)	0%	i	i	-2.8%	2.8e-08
73	O=C(CSc1ncccc1-c1nc2ccccc2[nH]1)N1CCCCC1	1%	i	i	1.8%	1e-09
74	CCOC(=O)C1CCCN(CCC(=O)Nc2ccc3c(c2)CCC3)C1 (centres undefined)	15%	i	i	1.8%	1e-09
75	Cc1ccc2c(N)c(C)ccc2c1	-5%	i	i	1.8%	1.7e-08
76	C1=C(CCNc2nnnn2-c2ccccc2)CCCC1	?	i	i	-1.2%	1.7e-09
77	CCOC(=O)c1[nH]c(C)c(C(=O)Nc2cccc(Cl)c2C)c1C	5%[11.4 µM]	i	i	-0.1%	1e-09
78	CCc1nc(N2CCCCC2)c2oc3ccccc3c2n1	?	i	i	-1.1%	1.6e-08
79	COCCOC(=O)c1[nH]c2c(c1C)C(=O)C(C(=O)OC)C(C)C2 (centres undefined)	4%	/	/	5.1%	/
80	Clc1ccc(OCc2nc(-c3ccccn3)n[nH]2)cc1	-2%	i	i	-0.9%	4.1e-08
81	COc1ccc(CCn2nnnc2C(c2ccccc2)N2CCN(C)CC2)cc1OC (centres undefined)	3%	i	i	0.0%	1.4e-08
82	c1ccc(SCc2nc(-c3ccncc3)no2)cc1	12%	i	i	0.5%	3.4e-08
83	CCCCOc1ccc(C2(C(=O)O)CCCC2)cc1	2%	/	/	0.2%	/
84	CC1(C)Cc2ccccc2-c2c1c(=O)n(-c1ccccc1)c1nnnn21	/	i	i	/	1e-09
85	C[n+]1cccc(CNC(=O)/C=N/O)c1	/	i	i	/	3.5e-08
